D2 agonist – agonists of human D2 dopamine receptor (beta-arrestin); DiscoveRx PathHunter D2 beta-arrestin, luminescence, 90 min; 100% = 57 uM dopamine signal; 360,000 compounds, 0.084% hits; activation, % (test concentration not listed); P14416; in the data active = activation above about 40%; inconclusive = about 15% to 40%; inactive = below about 15%; note: compound concentration not given in the record; the text of the record calls up to 30% inactive
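DiscoveRx PathHunter D2 beta-arrestin cells (2,100/well) attached overnight, then compound-stimulated 90 min at 37 C in HBSS/10 mM HEPES/0.1% Tween-20 buffer; beta-galactosidase complementation read by luminescence after 1 h at ambient temperature. Dopamine 57 uM final (EC100) as control.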
Six1-Eya2 inh – Six1/Eya2 interaction inhibition; Q15475+O00167; activity change, % (no concentration beside the values); AlphaScreen GST-Six1/His-Eya2 binding, biochemical; hits give low values; control for the full effect not named in the record; 360,000 compounds, 0.56% hits; in the data active = activity change below about -65%; inconclusive = about -30% to -65%; inactive = above about -30%; note: % is set by controls: 0 for no effect and ±100 for the full control effect
Target sequence (O00167 whole entry, looked up): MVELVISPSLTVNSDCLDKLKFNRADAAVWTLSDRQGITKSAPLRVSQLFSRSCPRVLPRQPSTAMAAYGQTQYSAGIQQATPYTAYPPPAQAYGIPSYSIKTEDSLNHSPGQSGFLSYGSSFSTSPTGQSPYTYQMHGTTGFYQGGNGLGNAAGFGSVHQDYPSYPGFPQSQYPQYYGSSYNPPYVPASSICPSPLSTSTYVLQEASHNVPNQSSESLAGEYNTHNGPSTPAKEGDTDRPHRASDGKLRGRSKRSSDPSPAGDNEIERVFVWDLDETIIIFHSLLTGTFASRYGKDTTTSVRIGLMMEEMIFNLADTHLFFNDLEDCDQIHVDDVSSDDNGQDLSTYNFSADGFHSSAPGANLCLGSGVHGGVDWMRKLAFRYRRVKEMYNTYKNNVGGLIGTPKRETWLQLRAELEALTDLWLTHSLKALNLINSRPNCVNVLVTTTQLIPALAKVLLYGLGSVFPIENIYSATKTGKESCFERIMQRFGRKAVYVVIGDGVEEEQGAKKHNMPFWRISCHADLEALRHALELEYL
Target sequence (Q15475 whole entry, looked up): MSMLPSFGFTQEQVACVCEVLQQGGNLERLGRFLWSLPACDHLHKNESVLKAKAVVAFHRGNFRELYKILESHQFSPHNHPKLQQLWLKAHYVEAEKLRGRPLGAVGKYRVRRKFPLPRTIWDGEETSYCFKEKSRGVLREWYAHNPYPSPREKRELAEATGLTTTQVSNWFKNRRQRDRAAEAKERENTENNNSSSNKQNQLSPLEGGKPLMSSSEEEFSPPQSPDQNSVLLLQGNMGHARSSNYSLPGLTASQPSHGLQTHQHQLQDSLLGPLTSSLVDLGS
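Homogeneous AlphaScreen proximity assay pairing GST-Six1 with His-tagged Eya2 (added as 5X mix: 250 nM and 500 nM) in 50 mM Tris pH 8.0, 300 mM NaCl, 1 mM TCEP. Glutathione donor and nickel acceptor beads; 1 h, 37 °C, dark.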
gsp ag – gsp mutant agonism. gsp mutant cells, cAMP HTRF, 30 min; control for the full effect not named in the record. Potency, µM (doses to about 76.9 µM), for the others: top-dose activation (cAMP increase), usual class: activators. 340,000 compounds, 0.13% hits. AID 624287; active = well fitted activation curve with a large enough effect; inconclusive = small, poorly fitted or top-dose-only effect, or another doubt; inactive = no such curve, though single readings can be large or run the other way; cell line not stated here;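 note: phosphodiesterase inhibitor Ro 20-1724 added with compounds to block cAMP breakdown; potency is the fitted concentration of half-maximal effect; nearly all actives have a fitted effect of over 60% in size; about a fifth of the inactives were tested at one dose only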
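Cells stably selected in G418 were plated at 2000/well, grown 16-24 hr, then given compounds in DMSO with the PDE inhibitor […] (300 uM solution added) for 30 min at 37C; cAMP was read by HTRF.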
D2 potentiator – human D2 receptor positive allosteric modulation. AID 624464. potentiation, % (test concentration not listed). P14416. DiscoveRx D2 beta-arrestin cells, luminescence, 90 min; 100% = 57 uM dopamine signal. 360,000 compounds, 0.23% hits; active = potentiation of 50% or more; inconclusive = 30% to 50%; inactive = 30% or less;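 note: compound concentration not given in the record; tested on top of an EC20 dose of dopamine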
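D2 cells co-treated with compound plus 50 nM dopamine (EC20) for 90 min at 37 deg C to detect potentiation. Beta-arrestin recruitment was read as enzyme-fragment luminescence after 1 h at ambient temperature. Full response was set by 57 uM dopamine.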
CtBP-E1A blk – CtBP/E1A binding inhibition; AlphaScreen GST-E1A/His-CtBP binding, 1536-well; hits give low values; control for the full effect not named in the record; activity change, % (test concentration not listed); 340,000 compounds, 0.49% hits; in the data active means activity change below about -65%; inconclusive means about -30% to -65%; inactive means above about -30%; note: % is set by controls: 0 for no effect and ±100 for the full control effect
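In 5 uL wells, 23 nL compound meets equimolar GST-E1A and His-CtBP (5X stock 125 nM each) for 2 h, 37 °C. Beads (5X, 50 ug/mL) then 1 h, 37 °C, dark.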
gsp antagonist – antagonists of gsp mutant (McCune-Albright syndrome) | AID 624288 | gsp-mutant cells, cAMP HTRF, 30 min; control for the full effect not named in the record | Potency, µM (series often up to 76.9 µM), inactives show at the highest dose activity change, negative = inhibition, most hits filed as inhibitors | 340,000 compounds, 0.4% hits; active = falling curve of any shape with a large fitted effect; inconclusive = falling curve, mostly with a smaller effect; inactive = flat or rising curve; cell line not stated here;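 note: intracellular cAMP measured with PDE inhibitor Ro 20-1724 present during compound exposure; potency is the fitted concentration of half-maximal effect; % is set by controls: 0 for no effect and ±100 for the full control effect; nearly all actives have a fitted effect of over 65% in size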
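HTRF cAMP measurement after 30 min RT detection following 30 min, 37C compound treatment alongside […] (added as 300 uM solution) in G418-selected cells seeded at 2000/well and grown 16–24 h.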
* = called active by the depositor; ? = inconclusive; · = not tested or not shown; [ ] = another dose, or the depositor's remark. This is a random part of the collection; overall some 1.4% were active at least once.

Field names: A = D2 agonist; B = Six1-Eya2 inh; C = gsp ag; D = D2 potentiator; E = CtBP-E1A blk; F = gsp antagonist
molecule: COc1ccccc1C(=O)N1CCN(C(=O)COc2cccc(C)c2)CC1
  A = 0.7; B = 11; C = 8%; D = -5; E = 1; F = 4%

molecule: O=C(CCCn1ncn2c(cc3occc32)c1=O)N1CCc2ccccc2C1
  A = -2.7; B = 2; C = 19%; D = -5; E = -4; F = -15%

molecule: Fc1ccc(/C=N\Nc2cccc(F)c2)cc1
  A = -0.4; B = -1; C = 2%; D = -2; E = 2; F = -2%

molecule: COc1ccc(N=N/C(=C\O)C(=O)c2cccs2)cc1
  A = -2.7; B = -27; C = -14%; D = -3; E = -14; F = ?

molecule: O=c1c2c3c(sc2nc2n1CCCCC2)CCC3
  A = -1.3; B = -1; C = -44%[inhibitor]; D = -12; E = 2; F = -7%

molecule: CCOc1ccc(NC(=O)CN(C)C(=O)Cn2cnc3c2c(=O)n(C)c(=O)n3C)cc1OCC
  A = -6.3; B = -5; C = 20%; D = 2; E = 4; F = 15%

molecule: CCCc1nn2c(=O)c(C(c3ccc(C)cc3)c3c(O)nc4sc(CCC)nn4c3=O)c(O)nc2s1
  A = 2.8; B = -20; C = 15%; D = -6; E = -11; F = 9%

molecule: COCCOC(=O)c1c(C)oc2ccc(OC(=O)c3ccc4c(c3)OCO4)cc12
  A = -2.6; B = 10; C = -30%[inhibitor]; D = 2; E = 9; F = -12%

molecule: CN(Cc1nc2ccccc2n1C)C(=O)c1cccs1
  A = -0.5; B = 0; C = 1%; D = 5; E = -2; F = 6%

molecule: CCOC(=O)c1nnn2c3ccccc3c(=O)n(C)c12
  A = -2.0; B = ?; C = 27%[15.4 µM]; D = -4; E = -11; F = -4%

molecule: CCOC(=O)N1CCC(N2Cc3cccc(C(=O)Nc4cccc(F)c4)c3C2=O)CC1
  A = 1.4; B = 12; C = -1%[15.4 µM]; D = -6; E = -2; F = -30%

molecule: O=C1CCC(C(=O)N2CCSCC2)CN1CCc1cccc(F)c1 (stereo not given)
  A = 1.7; B = -6; C = 2%[15.4 µM]; D = -6; E = 3; F = 4%

molecule: CCNC(=S)N(CCN(C)C)Cc1cc2cc3c(cc2[nH]c1=O)OCO3
  A = 1.9; B = 10; C = -2%; D = 1; E = 4; F = 6%

molecule: CC(=O)c1ccc2noc(-c3ccc(F)cc3)c2c1
  A = 6.0; B = 7; C = 11%[15.4 µM]; D = 59*; E = 3; F = -21%

molecule: Cc1cccc(C(=O)c2c(N)sc3c2CCC(C)C3)c1 (stereo not given)
  A = -6.7; B = -11; C = -2%; D = 8; E = 1; F = 7%

molecule: Cc1nn2c(-c3cccc(NC(=O)CSc4nc5ccccc5o4)c3)nnc2c2ccccc12
  A = -0.9; B = -20; C = 3%; D = 23; E = -19; F = ?

molecule: O=c1c2c3c(sc2nc2n1N=C(c1cccs1)CS2)CCCC3
  A = 1.5; B = 4; C = 3%; D = -10; E = -3; F = 2%

molecule: CCC(Oc1ccccc1)C(=O)N1CC(C)CC(C)C1 (stereo not given)
  A = -1.1; B = -2; C = 22%; D = -18; E = -1; F = 0%

molecule: Cc1ccc(NC(=O)COC(=O)c2c(C)nn(-c3ccccc3)c2C)cc1
  A = -1.4; B = 2; C = -3%; D = -2; E = 4; F = -13%

molecule: CC(=O)Oc1ccccc1-c1nc(/C=C/c2ccccc2)no1
  A = 2.3; B = 33; C = 3%[15.4 µM]; D = -23; E = 43; F = -11%

molecule: O=C(CCC(=O)OCC(=O)c1cccc([N+](=O)[O-])c1)NC1CCCCC1
  A = -23; B = -5; C = 6%; D = -41; E = ·; F = -10%

molecule: Nc1ccc(SC(F)(F)F)cc1C(=O)c1ccccc1
  A = -0.1; B = 14; C = 18%; D = 2; E = 2; F = -10%

molecule: COc1cc(C2C(C#N)=C(N)N(N(C)C)C3=C2C(=O)CCC3)cc(OC)c1OC (stereo not given)
  A = 2.3; B = -4; C = 4%; D = 3; E = -1; F = 0%

molecule: O=c1cc(CSc2nnc(COc3ccccc3)o2)c2ccccc2[nH]1
  A = -2.4; B = -1; C = -36%[inhibitor]; D = -14; E = -15; F = 8%

molecule: O=C(CCCN1C(=O)C(=Cc2ccc3c(c2)OCO3)SC1=S)Nc1ccc(C(=O)O)c(O)c1
  A = -9.1; B = -18; C = ·; D = -4; E = -12; F = ·

One compound at a time (already shown). Screens in order: D2 agonist	Six1-Eya2 inh	gsp ag	D2 potentiator	CtBP-E1A blk	gsp antagonist
O=C(CCCn1ncn2c(cc3occc32)c1=O)N1CCc2ccccc2C1 as listed: -2.7	2	19%	-5	-4	-15%
O=c1c2c3c(sc2nc2n1N=C(c1cccs1)CS2)CCCC3 as listed: 1.5	4	3%	-10	-3	2%
CCOc1ccc(NC(=O)CN(C)C(=O)Cn2cnc3c2c(=O)n(C)c(=O)n3C)cc1OCC as listed: -6.3	-5	20%	2	4	15%
Cc1cccc(C(=O)c2c(N)sc3c2CCC(C)C3)c1 (stereo not given) as listed: -6.7	-11	-2%	8	1	7%

Among those listed so far, these contain an NH in an aromatic ring:
Field names: A = D2 agonist; B = Six1-Eya2 inh; C = gsp ag; D = D2 potentiator; E = CtBP-E1A blk; F = gsp antagonist
molecule: CCNC(=S)N(CCN(C)C)Cc1cc2cc3c(cc2[nH]c1=O)OCO3
  A = 1.9; B = 10; C = -2%; D = 1; E = 4; F = 6%

molecule: O=c1cc(CSc2nnc(COc3ccccc3)o2)c2ccccc2[nH]1
  A = -2.4; B = -1; C = -36%[inhibitor]; D = -14; E = -15; F = 8%

The list goes on:
Field names: A = D2 agonist; B = Six1-Eya2 inh; C = gsp ag; D = D2 potentiator; E = CtBP-E1A blk; F = gsp antagonist
molecule: c1ccc(-c2noc(CN3CCCC(OCc4ccccn4)C3)n2)cc1 (stereo not given)
  A = 0.9; B = 5; C = 13%; D = -7; E = 5; F = -1%

molecule: Fc1ccc(CSc2nnc(-c3ccncc3)o2)cc1
  A = -0.2; B = 11; C = 6%[15.4 µM]; D = -5; E = ·; F = 14%

molecule: Fc1ccc(Nc2nnc(C(F)(F)F)s2)cc1
  A = -1.2; B = 11; C = 23%[15.4 µM]; D = -4; E = 8; F = 7%

molecule: CC(NC(=O)C12CC3CC(CC(C3)C1)C2)c1ccc2c(c1)OCCO2 (stereo not given)
  A = -0.7; B = -1; C = 4%; D = -7; E = 3; F = ?

molecule: Cc1noc(C)c1S(=O)(=O)N(C)C[C@H]1Oc2ccc(NS(=O)(=O)c3ccccc3)cc2C(=O)N([C@H](C)CO)C[C@@H]1C
  A = -1.3; B = -6; C = ·; D = -2; E = -29; F = 10%

molecule: CC(C)Cn1cnc2c(c1=N)C(c1ccccc1)C1=C(CC(C)(C)CC1=O)O2 (stereo not given)
  A = -2.2; B = -9; C = 3%; D = -1; E = 4; F = -24%

molecule: CCSc1ccccc1C(=O)n1nnc2ccccc21
  A = -4.7; B = 0; C = 4%; D = -17; E = 5; F = -3%

molecule: O=[N+]([O-])c1ccc2nc(/C=C/c3ccc(Cl)cc3)[nH]c2c1
  A = 4.2; B = -10; C = -17%; D = -25; E = -6; F = 35µM*

molecule: Cc1ccc(C(=O)N2CCC3(CC2)Oc2ccc(F)cc2C(=O)C32CC(c3cccnc3)=NO2)s1 (stereo not given)
  A = -3.0; B = -6; C = ·; D = -10; E = -6; F = 35µM*

molecule: O=C(Nc1nnc([C@H]2C[C@H](O)[C@@H](CO)O2)s1)c1cccc(Cl)c1
  A = -4.9; B = 6; C = ·; D = -13; E = 1; F = ·

molecule: O=c1c2ccccc2nc(/C=C/c2ccccc2)n1CCCO
  A = 1.0; B = -1; C = 21%; D = 6; E = -4; F = -11%

Assay outcomes from PubChem.
